Autofluor counter = flagged as autofluorescent in microsphere protease counterscreen; AID 624483; compound autofluorescence counterscreen, microsphere flow cytometry; stronger effect = higher value; fluorescence intensity (test concentration not listed); hit rate 3.1% among 360,000;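 active = at least 3 SD above the mean of all compounds, about 16000 in these data; inconclusive = too few beads counted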;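 also: 100 nL of 1 mM stock went into each well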
Mtb hypoxia inh = inhibitors of hypoxia-regulated fluorescent reporter in Mycobacterium tuberculosis | fluorescence inhibition, % (no concentration beside the values) | M. tuberculosis hypoxia-regulated fluorescent reporter, fluorescence | hit rate 0.1% among 300,000;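 active = 35 to 45% if threefold the growth effect, above 45% if 1.5-fold the growth effect; inactive = the rest, general growth blockers included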;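 also: wells of about 50 µL received 100 nL stock; 0% = vehicle wells and 100% = reference inhibitor wells; whole bacteria with a GFP reporter of the hypoxia response; strong numbers were not always called active; many hits fall short of the cut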
BJeLR viability = BJeLR cell viability loss; BJeLR (HRASV12) viability, CellTiter-Glo ATP luminescence, 48 h; reference of the scale not given here; AID 1554; inhibition, % (no concentration beside the values); hit rate 0.17% among 300,000;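 active = replicate mean above 50%; inconclusive = above 50% but judged a plate artefact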;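 also: 50 nL library stock added to about 25 µL; numbers are from one replicate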
Sa ugtP lethal = growth inhibition of S. aureus ugtP deletion strain; S. aureus RN4220 ugtP deletion, OD600 growth, 16 h; some inactives read as strong as hits; growth inhibition, % (no concentration beside the values); AID 1259309; hit rate 0.54% among 330,000;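 active = z-score under -3 and OD600 up to 0.15 on both plates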;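 also: plate controls were untreated wells for no effect and antibiotic for full effect; wells of about 80 µL received 100 nL stock; the first replicate is given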
PrP 5UTR inh = inhibition of PrP 5' UTR reporter expression; cell-based PrP 5' UTR mRNA reporter, plate reader; inhibition, % (no concentration beside the values); hit rate 0.35% among 340,000; AID 488862;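 active = every replicate at 50% or more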;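 also: 0 = median of the neutral control wells; tested in H4 reporter cells; numbers are from one replicate; inactives centre near -14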
RN4220 kill = S. aureus RN4220 growth inhibition; OD600, 16 h; inhibition, % (test concentration not listed); hit rate 0.33% among 330,000; AID 1259311;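 active = z-score of -3 or lower and OD600 up to 0.18 on both plates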;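 also: plate controls were untreated cells for no effect and reference antibiotic for full effect; stock transfer was 100 nL into about 80 µL; one replicate is shown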
Mtb hypoxia inh growth = also measured in Mtb hypoxia inh; calls as there; growth inhibition, %; measured here: M. tuberculosis growth (absorbance);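 0% = vehicle and 100% = reference antibiotic; read after six days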
Starred values were filed as active, the others as inactive; u = inconclusive; x = no result given.

A first look:
SMILES	Autofluor counter	Mtb hypoxia inh	Mtb hypoxia inh growth	BJeLR viability	Sa ugtP lethal	PrP 5UTR inh	RN4220 kill
CN(C)c1ccc(C(CNS(=O)(=O)c2ccc([N+](=O)[O-])cc2)N2CCOCC2)cc1 (stereo not given)	5306	8	-2	-3	1	-18	9.0
COc1ccc(N=Cc2ccc(CNS(=O)(=O)c3ccc(Cl)cc3)o2)cc1	3438	x	x	-3	x	-28	x
COC(=O)c1ccccc1N=Nc1c(C)n[nH]c1C	3621	-2	-4	-4	7	-11	9.3

Results, from the first entry:
SMILES	Autofluor counter	Mtb hypoxia inh	Mtb hypoxia inh growth	BJeLR viability	Sa ugtP lethal	PrP 5UTR inh	RN4220 kill
CN(C)c1ccc(C(CNS(=O)(=O)c2ccc([N+](=O)[O-])cc2)N2CCOCC2)cc1 (stereo not given)	5306	8	-2	-3	1	-18	9.0
COc1ccc(N=Cc2ccc(CNS(=O)(=O)c3ccc(Cl)cc3)o2)cc1	3438	x	x	-3	x	-28	x
COC(=O)c1ccccc1N=Nc1c(C)n[nH]c1C	3621	-2	-4	-4	7	-11	9.3
O=C(Nc1ccccc1C(=O)NCCCN1CCOCC1)c1cccc([N+](=O)[O-])c1	u	5	13	9	-5	-9	-2.2
CCOC(=O)c1c(C)[nH]c(C(=O)NNC(=O)c2ccc(C(C)(C)C)cc2)c1C	2585	4	5	5	3	-22	0.6
COc1ccccc1CNC(=O)CCc1c(C)nc2cc(-c3ccccc3OC)nn2c1C	6198	5	9	9	7	1	4.6
CCN(C(=O)CSc1ccc2ccccc2c1)C1CCS(=O)(=O)C1 (stereo not given)	3195	-5	3	0	7	-18	6.0
O=C(NC1CCN(S(=O)(=O)c2ccc(F)cc2)CC1)c1ccco1	4051	5	-7	-13	3	-17	0.7
Cc1cccc(OCC(=O)Nc2cc(NC(=O)COc3cccc(C)c3C)cc(C(=O)O)c2)c1C	4396	1	8	0	-5	-13	1.5
CC(=O)c1cc2c(cc1C)CCCC2(C)C	3660	7	2	x	1	x	1.6
Cc1cccc(NC(=O)NNC(=O)c2cc3occc3[nH]2)c1C	5605	1	-13	-8	0	-18	1.6
Cc1ccc(S(=O)(=O)CCC(=O)OCc2nnc(-c3ccc([N+](=O)[O-])cc3)o2)cc1	x	-2	9	x	8	-2	10
Cc1cc(Cl)ccc1NC(=S)N1CCN(C(=O)C2CCCO2)CC1 (stereo not given)	2458	2	-2	-20	11	-35	0.8
Cc1cc(=O)[nH]c2ccc(S(=O)(=O)NC3CCCCC3)cc12	6453	-8	2	-4	1	-5	1.4
C=CCNc1nc(N2CCOCC2)c(C#N)c2c1CN(C)CC2	11311	4	-1	-3	0	7	0.5
O=C(CN1CCCCCC1)Nc1ccc(F)c(F)c1	3255	x	x	2	10	-18	3.3
CC(/C=C/c1ccccc1)=N\NC(=O)c1cc(C)[nH]n1	2794	x	x	-7	x	-30	x
O=C(NNC(=O)c1ccc2c(=O)n3c(nc2c1)CCC3)c1ccc(F)cc1	6591	0	5	-3	0	-3	3.0
CCOc1ncccc1C(=O)OC(C)C(=O)Nc1ccc(N2CCOCC2)cc1 (stereo not given)	u	1	-5	x	10	-11	2.4
COC(=O)COc1ccc(S(=O)(=O)N2CCCCC2)cc1[N+](=O)[O-]	2130	13	9	-2	4	-15	4.4
O=C(CCN1CCOCC1)NCc1ccccc1	3684	-6	-4	-2	4	-20	0.7
Nc1c(-c2ccccc2)cnc2ncnn12	8891	14	14	-3	-1	-23	3.8
CN(C)CCN(C)Cc1ccccc1Sc1cccc2ccccc12	9343	3	13	10	-27	-33	-9.4
CCc1nnc(NS(=O)(=O)c2ccc(N/C=C\C(=O)c3ccc(F)cc3)cc2)s1	4093	11	17	-8	-3	-14	4.5
COc1ccc(Nc2oc(-c3ccc(F)cc3)nc2C#N)cc1	x	5	4	22	-6	x	-0.4
Carrying on.
SMILES	Autofluor counter	Mtb hypoxia inh	Mtb hypoxia inh growth	BJeLR viability	Sa ugtP lethal	PrP 5UTR inh	RN4220 kill
CC(=O)COc1cccc2ccc(/C=C/c3ccc(Br)s3)nc12	3515	22	15	13	-3	-1	5.7
COc1ccc(CCC(=O)Nc2ccc(OC)c(S(=O)(=O)N3CCCCC3)c2)cc1	6530	6	9	x	-1	-22	-1.4
O=C(c1cccc(S(=O)(=O)NCc2ccccc2)c1)N1CCN(c2ccc(F)cc2)CC1	3351	0	8	x	-1	-17	3.4
Cc1cc(C(=O)OCC(=O)NC2CCS(=O)(=O)C2)c2ccccc2n1 (stereo not given)	3892	14	1	4	3	-40	-5.3
COc1ccc(Br)cc1/C=C/C(=O)NC(=S)Nc1ccc(CN2CCOCC2)cc1	6272	-9	0	-5	4	-26	5.2
COc1ccc(-n2c(O)c(/C=C/C=Nc3ccccc3)c(=O)[nH]c2=O)cc1	2949	-46	0	-1	-1	-15	4.3
CCOc1ccc(C(C)NC(=O)Cc2ccccc2F)cc1OCC (stereo not given)	4149	-1	-4	15	6	-66	8.5
COc1cccc(Oc2ccc(OC)cc2C(=O)O)c1	4341	13	2	-2	3	-23	7.2
COc1ccc(C2=NC(=O)NC2c2ccc(OC)cc2)cc1 (stereo not given)	4125	14	3	-13	-1	-17	3.2
Cc1ccc(OCCNCC(O)COc2ccccc2)cc1 (stereo not given)	3634	-11	-5	3	-8	-17	1.0
CN1CCN(Cc2c(O)ccc3cc(Br)ccc23)CC1	x	-3	1	3	0	x	6.0
CCSc1ccccc1C(=O)Nc1cc(OC)c(OC)c(OC)c1	2680	9	5	-3	10	-17	-2.7
COc1ccc(C(=O)C2CN(C)CC2c2ccc(Cl)cc2)cc1 (stereo not given)	5081	11	8	2	5	9	0.8
CC(C)CC(=O)Nc1cc2c3c(c1)C(C)C(=O)N3CCC2 (stereo not given)	4910	-2	-8	2	5	0	3.7
COC(=O)C1(NC(=O)CNC(=O)OCc2ccccc2)CCCC1	2887	12	6	x	2	1	1.9
CCOc1cc(-c2nc3cc(C)ccn3c2NCC2CCCO2)ccc1O (stereo not given)	4293	7	-1	7	4	-30	1.3
O=[N+]([O-])c1ccccc1Sc1nccn1Cc1ccccc1	8442	15	9	4	-4	-7	9.8
COc1cc(C=NNC(=O)CSc2ccccn2)ccc1O	x	-6	2	x	5	x	3.5
N#CC(=NNc1ccc(OC(F)(F)F)cc1)C(N)=S	x	x	x	x	87*	x	82
COc1ccc(OC)c2c(C)cc(NCCN3CCOCC3)nc12	10592	4	3	5	0	-29	1.4
CCN(C(=O)Cn1nc(C)c([N+](=O)[O-])c1C)c1c(N)n(Cc2ccccc2)c(=O)[nH]c1=O	6659	5	-1	0	7	-59	5.1
CCN1C(=O)c2cccc3c(NC(=O)c4ccc(S(=O)(=O)N5CCOCC5)cc4)ccc1c23	2369	x	x	3	-1	-6	-0.7
COC(=O)c1cc2c(s1)-c1cc(F)ccc1OC2	3297	-7	2	-3	-6	-27	3.6
CCC(C)(O)C(=O)NC1CCCN1C(=O)C=Cc1ccccc1 (stereo not given)	x	0	2	x	-4	x	1.1
COC(OC)C1(C)C(C#N)=C(N)Oc2c1c(=O)oc1ccccc21 (stereo not given)	3375	4	7	-6	9	2	6.8
(more compounds)
SMILES	Autofluor counter	Mtb hypoxia inh	Mtb hypoxia inh growth	BJeLR viability	Sa ugtP lethal	PrP 5UTR inh	RN4220 kill
CCC(C)c1ccc2oc(-c3ccc(NC(=O)c4ncn[nH]4)cc3)nc2c1 (stereo not given)	20099*	-9	-1	-9	-13	-8	-7.6
CCOC(=O)c1sc(NC(=O)CNCc2ccccn2)c(C(=O)OCC)c1C	4564	11	7	4	10	27	4.3
O=C(NCC12CC3CC(CC(C3)C1)C2)c1cc2n(n1)C(C(F)(F)F)CC(c1ccco1)N2 (stereo not given)	4527	x	x	-3	-15	1	-1.4
CCOC(=O)N1CCN(C(=O)CSCC(=O)Nc2nc(-c3ccc(OC)cc3)cs2)CC1	9601	-4	-18	x	3	-28	-1.1
CC(C)(C)NC(=O)/C=C/c1cccs1	4168	15	8	2	7	-60	5.3
COc1ccc(C2CC=C(C(=O)O)C(c3ccc(Cl)cc3)N2S(=O)(=O)c2ccccc2C)cc1 (stereo not given)	x	-2	1	x	17	x	21
O=C(O)CCNC(=O)OCC1c2ccccc2-c2ccccc21	3256	7	3	-3	10	-16	2.2
Cc1ccc(NC(=O)CCCc2nc3ccccc3c(=O)[nH]2)c(Cl)c1	x	4	0	x	-2	-12	7.8
NNC(=O)c1ccc(Cn2cc(Cl)cn2)o1	3117	7	5	-7	3	-16	3.7
CCOc1cccc(N2CCN(CCNC(=O)Nc3ccc(C)cc3)CC2)c1C	3819	10	8	1	12	-15	2.4
Cc1nc2cc(C(=O)OCC(=O)NC34CC5CC(CC(C5)C3)C4)ccc2n1-c1ccccc1	2683	-3	-6	8	-13	-25	-6.6
O=C(CSc1cccc[n+]1[O-])Nc1ccc(N2CCOCC2)cc1	x	14	6	-1	2	x	10
CCN(CC)S(=O)(=O)c1cccc(C(=O)/C=C2/N(C)c3ccccc3C2(C)C)c1	2107	-9	1	0	-9	-38	0.2
N#Cc1c(-c2ccccc2)c(-c2ccccc2)nn(CC(=O)NNC(=O)Nc2ccc(Cl)cc2)c1=O	3753	1	13	6	30	-32	-12
CCOC(=O)CN1C(=O)N[C@@H](c2ccc(Br)cc2)C(C(=O)OC)=C1C	2757	x	x	8	x	-8	x
CCSc1nnc(NC(=O)c2ccccn2)s1	2279	8	16	19	-6	-18	-0.2
O=S(=O)(c1cccs1)N1CCN(CC(O)COc2cc(Cl)ccc2Cl)CC1 (stereo not given)	3919	x	x	x	-1	-20	4.8
Cc1cccc(C(=O)NC(=S)Nc2ccc3[nH]c(=O)[nH]c3c2)c1	2139	4	8	-3	5	-25	1.3
O=c1c2c(nc3nc(NCc4cccc(Cl)c4)[nH]n13)CCC2	4816	-3	9	-6	-1	-27	1.2
O=C(Nc1cccc(-c2nn[nH]n2)c1)c1csc2c1CCCC2	6006	-1	6	-3	-7	-25	-0.1
Cn1ncc2c(NNC(=O)Cc3ccccc3)ncnc21	2543	4	4	4	15	-12	2.4
COc1ccc2[nH]cc(C(=O)CN(C)CCc3ccc(OC)c(OC)c3)c2c1	2918	x	x	9	-8	-7	0.5
CCOc1cc(C(=O)OCC(=O)NCc2ccco2)cc(OCC)c1OCC	3646	13	4	11	-2	-5	1.6
CC(NC(=O)c1ccccc1)C(=O)N/N=C/c1ccc(O)cc1 (stereo not given)	2572	x	x	-3	x	-12	x
C=CCNC(=O)c1cc(Cl)cc(Cl)c1	4214	14	10	6	-3	-9	5.4

Grouped by structure: the compounds so far with a CF3 group (two)
SMILES	Autofluor counter	Mtb hypoxia inh	Mtb hypoxia inh growth	BJeLR viability	Sa ugtP lethal	PrP 5UTR inh	RN4220 kill
N#CC(=NNc1ccc(OC(F)(F)F)cc1)C(N)=S	x	x	x	x	87*	x	82
O=C(NCC12CC3CC(CC(C3)C1)C2)c1cc2n(n1)C(C(F)(F)F)CC(c1ccco1)N2 (stereo not given)	4527	x	x	-3	-15	1	-1.4

The list continues:
SMILES	Autofluor counter	Mtb hypoxia inh	Mtb hypoxia inh growth	BJeLR viability	Sa ugtP lethal	PrP 5UTR inh	RN4220 kill
Cc1cccc(NC(=O)/C=C/c2ccc(Cl)cc2)n1	2606	8	3	13	2	-115	9.5
O=C1NC(c2ccccc2)=NC1(NS(=O)(=O)c1ccccc1)C(F)(F)F (stereo not given)	11730	8	4	3	5	-23	12
O=C(NCC(c1cccnc1)N1CCN(c2ccccc2F)CC1)c1ccco1 (stereo not given)	6579	-3	-5	2	-1	-17	-11
COc1ccc(CSc2nncn2C)cc1[N+](=O)[O-]	2156	9	5	-1	1	-13	0.8
N#C/C(=C\c1cccnc1)C(=O)Nc1ccccc1[N+](=O)[O-]	5990	1	5	-3	3	-16	3.2
CCCS(=O)(=O)N1CCN=C1SCc1cccc(C)c1	2175	2	-5	1	4	-21	5.4
O=C(NCCS(=O)(=O)N1CCN(c2ccccc2)CC1)C1CC1	u	5	6	-3	5	-9	1.5
O=C(O)C(Cc1ccccc1)N1C(=O)/C(=C/c2ccccc2)SC1=S (stereo not given)	1862	13	1	-3	39	-24	41
COc1cc(NC(=O)CNC(=O)Cn2c(C)cc3ccccc3c2=O)cc(OC)c1OC	5250	1	4	-2	8	-8	1.1
Cc1ccc(C)c(NC(=S)c2ccc3ccccc3n2)c1	2502	-5	3	6	14	-49	-12
O=C(COC(=O)c1cncc(Br)c1)NCc1cccs1	3632	19	36	x	7	-36	-1.1
O=C(COc1cc2oc(=O)c3c(c2cc1Cl)CCCC3)NCc1cccnc1	5467	-14	10	1	-1	0	-2.2
Cc1nc(N)nc(Nc2ccc(Cl)cc2)c1Br	9433	3	-2	2	-1	-41	7.9
